Screening data from PubChem.
NPYLR7 agonist: activates Aedes aegypti NPYLR7 receptor; HEK293T NPYLR7/Galpha15, GCaMP6s calcium fluorescence; activation, % at 10 µM; hit rate 0.15% among 270,000; AID 1259423; in the data active means activation above about 40%;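 further: 0% = vehicle and 100% = reference agonist at the receptor; some compounds past the cut are filed as inactive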
NPYLR7 agonist max-min: also measured in NPYLR7 agonist; calls as there; activation, %; measured here: Max-Min RFU normalised activation; some inactives read as strong as hits;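 span of the calcium signal over five minutes; 0% = vehicle and 100% = native peptide agonist; compound fluorescence can raise it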
An asterisk follows results filed as active; & = joins results of further samples. The list is partial. The share of hits here may be higher or lower than overall.

SMILES	NPYLR7 agonist	NPYLR7 agonist max-min
CC1(c2ccc(Cl)cc2)NC(=O)N(CC(=O)N2CCNC2=O)C1=O (centres undefined)	-7	-9
S=c1[nH]nc(-c2snnc2-c2ccccc2)n1CC1CCCCC1	-6	-14
CN(C)C=Nc1ccc(Br)cn1	-6	-13
CCC(=O)N(CCN1CCOCC1)Cc1cc(Cl)ccc1OCc1nc(CO)cs1	7	4
CNS(=O)(=O)c1ccc(Sc2nnc3ccccn23)c([N+](=O)[O-])c1	0	3
Cc1nc2c(c(=O)c3ccccc3n2C)c(=O)n1-c1ccccc1	6	4
CC(OC(=O)CSCCc1ccccc1)C(=O)Nc1ccc(S(=O)(=O)N2CCOCC2)cc1 (centres undefined)	-1	13
COc1cc(-c2ccnc(N3CCN(C(=O)c4cccc(F)c4)CC3)n2)cc(OC)c1OC	-9	-12
O=C(c1cc2cc(Cl)ccc2oc1=O)N1CCCc2ccccc21	6	1
Cc1nn2c(ncc3c(=O)n(-c4ccccc4C#N)ccc32)c1-c1ccc(F)cc1	-7	-13
COc1cc(Cn2nc(C(C)C)c3cnn(C(C)(C)C)c3c2=O)cc(OC)c1	11	10
CC(C)(O)C#Cc1cccc(C(=O)NCCC2=CSC3=NCCCN23)c1	16	9
CCC(OC1CCCC(C)C1)C(=O)NC(C(N)=O)C(C)C (centres undefined)	0	-2
CCC/C=C/c1ncccc1C(=O)N1CCCC1	11	8
CCCc1[nH]n(-c2ccc(F)cc2)c(=O)c1C1=C([n+]2cccc(C)c2)C(=O)N(CC(C)C)C1=O	-1	6
CCOc1cc(C=C2N=C(c3ccccc3F)OC2=O)ccc1OCC(=O)N1CCCCC1	7	11
O=S(=O)(CCO)Cc1ccc(OC(F)F)cc1	2	0
Cc1cc(C)n(-c2cc(Oc3ccc(C#N)cc3)nc(-c3ccccc3)n2)n1	1	0
CCC(=O)Nc1cccc(C(=O)N(Cc2c(C)nn(C)c2C)C(C)C)c1	3	-7
COc1cc(-c2cnn3ccc(NCCN(C)C)nc23)cc(OC)c1OC	-5	-9
CSc1nc2ncc3c(=O)n(C4CCCC4)ccc3n2n1	4	5
CCOC(=O)N1CCN(CC(=O)N2N=C(c3ccc(F)cc3)CC2c2cc(C)ccc2C)CC1 (centres undefined)	-1	5
Cc1nc(Nc2ccccc2F)sc1C(=O)Nc1ccccc1	2	3
CN1CCN2C[C@@H](NC(=O)CCc3ccc4c(c3)OCO4)C[C@H]2C1	-6	-9
CC(CS(C)(=O)=O)N(C)c1cccc(C(F)(F)F)n1 (centres undefined)	2	-1

Carrying on:
SMILES	NPYLR7 agonist	NPYLR7 agonist max-min
CC(C)=CCC/C(C)=C/CNC(=O)c1cncn1-c1cccc(-c2cccc3c2sc2ccccc23)c1	10	0
CCOc1ccc2c(c1)CC(C(=O)C(C#N)c1ccccn1)CO2 (centres undefined)	0	2
CCOC(=O)CC1=Nn2c(nnc2-c2cccs2)SC1	0	-2
O=C(c1ccc(-n2ccnc2)cc1)N1CCCC(Nc2ccc3c(c2)OCCO3)C1 (centres undefined)	0	0
FC(F)(F)c1ccc2c(c1)n(Cc1ccc(Cl)cc1Cl)c1[n+]2CCCCC1	-3	-6
CC(=O)Nc1ccc(/C=C2/SC(=Nc3ccccc3)NC2=O)cc1	-7	-12
CCN(CC)S(=O)(=O)c1ccc(NC(=O)CN2c3ccccc3CC2C)cc1 (centres undefined)	-3	-3
Fc1ccc(Cn2c3[n+](c4ccc(C(F)(F)F)cc42)CCCCC3)cc1	-3	-7
C=CCNC(=O)CN1CCN(Cn2nc3ccccn3c2=S)CC1	0	-2
O=C(CCc1ncc(-c2ccc(F)cc2)o1)NCC(=O)Nc1ccccc1Br	2	9
Cc1noc(C)c1CCC(=O)NCc1cccnc1N1CCCC(O)C1 (centres undefined)	2	-2
Cc1ccc(C(=O)NCCn2ncc3c(=O)n(Cc4ccccc4)cnc32)cc1C	-3	-9
COc1cn(CC(N)=O)c(CN2CCOCC2)cc1=O	0	-1
COc1cccc(-c2nc(C(F)(F)F)nc(C)c2C)c1F	1	17
O=C1NCCCC[C@@H]1Nc1ccc(C(=O)N2CCC(Cn3cccn3)CC2)cn1	-2	-5
COCC(=O)N1CCN(c2nc(-c3ccccc3)nc(C)c2Cc2cc(C)ccc2C)CC1	-1	2
Nc1cccc(CCC(F)(F)F)c1	16	6
OC1(c2ccc(Cl)cc2Cl)CN(c2ccccc2)C2=[N+]1CCCS2 (centres undefined)	3	1
CC(CCc1ccccc1)NC(=O)CSc1nnnn1-c1ccccc1 (centres undefined)	13	14
Cn1cc(C(CC(=O)NCc2ccccn2)c2ccc3c(c2)OCO3)c2ccccc21 (centres undefined)	4	17
c1ccc(-c2n[nH]c(C3CC3)n2)c(-c2nn[nH]n2)c1	17	12
CCc1cc(=O)n(CC(=O)Nc2ccc(Cl)c(Cl)c2)c(-n2nc(C)cc2C)n1	3	1
CCc1noc(Cn2c(=O)c3ccc(C(F)(F)F)nc3n(C)c2=O)n1	14	13
O=C(c1cc2n(n1)CCCN(C1CCOCC1)C2)N1CCCC1	5	0
CC1(C)CC1(C(=O)NCCc1nnc(N)s1)c1cccs1 (centres undefined)	-3	-8

The list goes on.
SMILES	NPYLR7 agonist	NPYLR7 agonist max-min
COC(=O)C1C(=O)c2c([nH]c(C(=O)OC(C)C)c2C)CC1C (centres undefined)	-4	-4
Cc1ccc(-n2cnnc2SCC(=O)OCc2cnn(-c3ccccc3)c2)cc1Cl	4	-1
COc1ccc(-c2cccc(N3CCN(c4ccccn4)CC3)n2)cc1OC	-11	-14
CCc1[nH]c2ccc(CNC(=O)c3cccnc3N3CCOCC3)cc2c1C	3	2
O=C(NCc1c(F)cccc1Cl)c1ccc(-c2cccc(Cl)c2)s1	4	2
CC(=O)OCC(=O)N1CCC(=O)N(CCC#N)C[C@H]2COc3ccc(C)cc3[C@H]21	7	18
CCOc1ccc2nc(N(CCCn3ccnc3)C(=O)c3ccco3)sc2c1	-7	-12
O=C(CNC(=O)c1cccs1)NNC(=O)c1cccs1	3	0
O=C(CCc1nc2ccccc2[nH]c1=O)OCc1ccccc1F	-8	-13
Cc1csc2c(N3CCC4(CCNCC4)C3)ncnc12	1	-3
CCCN(CC(=O)N(CCc1ccc(OC)c(OC)c1)Cc1ccc(C)s1)C(=O)Nc1cccc(C#N)c1	-2	-2
O=C(Nc1ccc(-n2cnnn2)cc1)C1=Cc2cc(Cl)ccc2OC1	7	2
CN(Cc1nc2ccccc2s1)C(=O)c1cccc(Cn2cccn2)c1	11	-4
O=C(Nc1cccc2nsnc12)c1ncn[nH]1	0	-2
O=C1CSC(=S)N1Cc1ccco1	-5	-7
Cc1c(C)n2c3c(=O)n(Cc4ccccc4F)c(=O)n(C)c3nc2n1CCCN1CCOCC1	7	5
O=C1CN(C(=O)c2cccc(C(F)(F)F)c2)CC(O)CN1CC1CC1 (centres undefined)	-11	-3
CCNc1nc(NCOC)nc(-n2cnc(SCc3ccccc3)n2)n1	-12	-20
O=C(O)CCCCCN1C(=O)C2CC=CCC2C1=O (centres undefined)	1	2
CCN1CC(CNC(=O)c2cc(NC(=O)C(C)C)cc3nc(C)n(Cc4ccccc4)c23)CC1=O (centres undefined)	3	-1
COc1c[nH]c(CN2CCCC2c2nc3ccc(F)cc3[nH]2)cc1=O (centres undefined)	-1	-1
CCCCOc1ccc(-c2nc(C=NCc3ccccc3)c(O)o2)cc1	-1	-10
O=C(O)C1C2CCC(C2)N1C(=O)NC1CCCCC1 (centres undefined)	0	-3
CCN(CC)CCCC(C)Nc1ccnc2cc(Cl)ccc12 (centres undefined)	-7&-3&0&5	-11&-11&-4&-11
Cc1ccccc1NC(=O)Cc1nc(CN2CCCC2)cs1	-24	-22

Some of the entries so far, with values under each structure.
Each structure is followed by: NPYLR7 agonist, NPYLR7 agonist max-min
COC(=O)C1C(=O)c2c([nH]c(C(=O)OC(C)C)c2C)CC1C (centres undefined)
    -4, -4
Cc1ccc(-n2cnnc2SCC(=O)OCc2cnn(-c3ccccc3)c2)cc1Cl
    4, -1
COc1ccc(-c2cccc(N3CCN(c4ccccn4)CC3)n2)cc1OC
    -11, -14
CCc1[nH]c2ccc(CNC(=O)c3cccnc3N3CCOCC3)cc2c1C
    3, 2
O=C(NCc1c(F)cccc1Cl)c1ccc(-c2cccc(Cl)c2)s1
    4, 2
CC(=O)OCC(=O)N1CCC(=O)N(CCC#N)C[C@H]2COc3ccc(C)cc3[C@H]21
    7, 18
CCOc1ccc2nc(N(CCCn3ccnc3)C(=O)c3ccco3)sc2c1
    -7, -12
O=C(CNC(=O)c1cccs1)NNC(=O)c1cccs1
    3, 0
O=C(CCc1nc2ccccc2[nH]c1=O)OCc1ccccc1F
    -8, -13
Cc1csc2c(N3CCC4(CCNCC4)C3)ncnc12
    1, -3
CCCN(CC(=O)N(CCc1ccc(OC)c(OC)c1)Cc1ccc(C)s1)C(=O)Nc1cccc(C#N)c1
    -2, -2
O=C(Nc1ccc(-n2cnnn2)cc1)C1=Cc2cc(Cl)ccc2OC1
    7, 2
CN(Cc1nc2ccccc2s1)C(=O)c1cccc(Cn2cccn2)c1
    11, -4
O=C(Nc1cccc2nsnc12)c1ncn[nH]1
    0, -2
O=C1CSC(=S)N1Cc1ccco1
    -5, -7
Cc1c(C)n2c3c(=O)n(Cc4ccccc4F)c(=O)n(C)c3nc2n1CCCN1CCOCC1
    7, 5

New compounds follow:
SMILES	NPYLR7 agonist	NPYLR7 agonist max-min
Cc1cccc(S(=O)(=O)NC(=O)C2(C)CCN2C(=O)CC(c2ccccc2)c2ccccc2)c1 (centres undefined)	-1	-9
COCC(C)NC(=O)Nc1ccc(Oc2ccncc2)cc1 (centres undefined)	17	9
c1ccc(CCc2nc(-c3ccc(CSc4ncn[nH]4)o3)n[nH]2)cc1	10	7
CCCCOC(=O)c1ccc(-c2n[nH]c(=O)c3ccccc23)cc1	5	4
O=C(CSc1nc(=O)n(CCCN2CCOCC2)c2c1CCC2)Nc1cccc2ccccc12	1	-3
Cc1cccc(Cn2c(C(=O)N3CCN(C(=O)c4ccc(C(F)(F)F)cc4)C(C)C3)cc3ccsc32)c1 (centres undefined)	4	8
O=C(O)c1ccc(C=Nc2ncn[nH]2)cc1	-8	-8
Cc1cccc2c(CCNC(=O)[C@H]3CCCO3)c[nH]c12	4	7
O=C(Nc1ccc(F)cc1F)c1cnn2c(C(F)(F)F)cc(-c3ccco3)nc12	-7	-11
CC(O)CN(c1ccccc1)S(=O)(=O)C1=Cc2ccccc2CC1 (centres undefined)	-4&-6	-5&-5
Cc1ccc(OC2(C(=O)NC(C)Cc3cc(C)[nH]n3)CCNCC2)cc1 (centres undefined)	-5	-7
O=C(CNC(=O)c1cccc(F)c1)Nc1nc2cc3c(cc2s1)OCCO3	19	7
O=C(Nc1cccc(C(F)(F)F)c1)N[C@H]1CO[C@H]2[C@@H]1OC[C@@H]2n1cc(-c2ccccc2)nn1	-3	-6
O=C(O)c1cc2occc2n1Cc1ccc(F)cc1F	14	4
CCOC(=O)Cn1c(=NC(=O)C2=COCCO2)sc2cc(C(=O)OCC)ccc21	5	3
CN1CCN(C)C2(CCN(C(=O)C(c3ccccc3)n3cnnn3)CC2)C1 (centres undefined)	5	3
COc1cc(C=C2N=C(c3ccc(Cl)cc3)OC2=O)ccc1OCC(=O)N1CCOCC1	2	14
CCSc1nc(CC(=O)NCc2ccc(CC)cn2)cs1	4	-6
Fc1ccc(CSc2nn3cnnc3s2)cc1	9	1
CC1CN(C(=O)CN2C(=O)c3ccccc3C2=O)CC(C)O1 (centres undefined)	0	-6
COc1ccccc1-n1c(SCCC(N)=O)nnc1-c1cccs1	-1	3
O=C(NC(Cc1ccccc1)c1ccccc1)c1cc2n(n1)CCN(Cc1cccc(F)c1)C2=O (centres undefined)	-3	-3
Cc1c(C(=O)NCC(c2cccc3ccccc23)N2CCCC2)cccc1[N+](=O)[O-] (centres undefined)	2	8
COC(=O)C(C(=O)OC)C(C)(C)C(C(=O)OC)C(=O)OC	-1	-2
O=c1oc2ccc(Br)cc2cc1-c1nnc(-c2cccc(F)c2)o1	-8	-14

The list continues:
SMILES	NPYLR7 agonist	NPYLR7 agonist max-min
Cc1n[nH]c(C)c1CCCCCOc1cccc(Cl)c1	15	5
O=C1CN(N=Cc2ccc(-c3ccc([N+](=O)[O-])cc3)o2)C(=O)N1	0	-7
CC1CCC(C(C)C)C(OC(=O)Cn2c[n+](C)c3ccccc32)C1 (centres undefined)	6	6
Cc1ccsc1C=NNC(=O)OC(C)(C)C	-23	-25
O=C(NCc1cccnc1)c1coc(CN(Cc2ccc3c(c2)OCO3)Cc2ccc(Cl)cc2Cl)n1	17	41
CN(Cc1nc(-c2cnccn2)no1)Cc1cccc2ccccc12	7&-7	7&-9
COCC(=O)N(C)C(C)(C(=O)OC)c1ccc(Br)cc1 (centres undefined)	9	6
CCC1C2=C(CC(C)(C)CC2=O)OC(=N)C1C#N (centres undefined)	0	-3
CC(C1CC2CCC1C2)n1c(-c2ccco2)n[nH]c1=S (centres undefined)	3	3
O=C(Nc1cccc(C(F)(F)F)c1)Nc1cccc2[nH]c(COCCO)nc12	25	25
CCOC(=O)Cn1c(O)c(N=NC(=O)CNC(=O)c2ccc3c(c2)OCO3)c2ccccc21	11	14
c1cc(CN2CCC3(CCOCC3)CC2)ccn1	2	0
O=C(NCCCn1ncccc1=O)c1ccccc1C(F)(F)F	-11	-19
CC(C)NC(=O)CNc1cccc(Cl)c1	-2	3
O=C(CCCn1nnnc1CN1CCc2ccccc2C1)NC1CCc2ccccc21 (centres undefined)	-5	-7
O=C(Nc1ccccn1)c1cccnc1Nc1cc(Cl)cc(Cl)c1	-10	-15
O=C(c1ccccc1OC(F)(F)F)N1CC(=O)N2CCc3c(F)cccc3C2C1 (centres undefined)	35	22
CCOc1ccc(-n2nnc3c(=O)n(Cc4ccc(C)cc4)cnc32)cc1	6	10
Cc1ccc(-n2c(C)cn3c4c(=O)n(CCN5CCOCC5)c(=O)n(C)c4nc23)cc1C	15	6
CCc1[nH]n(-c2ccc(Cl)cc2)c(=O)c1C1=C([n+]2cccc(C)c2)C(=O)N(CC2CCCO2)C1=O (centres undefined)	-5	3
CC(Sc1nccn1C1CC1)C(=O)Nc1ccc(N2CCCCC2)cc1 (centres undefined)	1	9
CCCc1nnc2sc(CCc3c(C)n[nH]c3C)nn12	0	19
